High-throughput results from PubChem BioAssay.
Mtb MenB inh: blocks the Mycobacterium tuberculosis MenB enzyme; P9WNP5; inhibition, %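 (about 12 µg/mL by stock and volumes)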; 100,000 tested, 0.43% active; MenB enzyme assay, absorbance read-out; some hits fall short of the stated cut;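 active means mean of two replicates above 30%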;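 further: 0% = no compound and 100% = wells with inactive enzyme; the first replicate is given; strong numbers were not always called active; inactives centre near -10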
MbtI inh: MbtI salicylate synthase inhibition | purified MbtI enzyme, fluorescence intensity read-out | 100,000 tested, 0.89% active | AID 493033 | P9WFX0 | inhibition, %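 (about 17 µg/mL by stock and volumes)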;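 active means above 50% in both replicates, above 80% if mildly self-fluorescent; inactive means the rest, strongly fluorescent compounds included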;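 further: 0% = mean of negative and 100% = mean of positive controls; one replicate is shown; some compounds called inactive have numbers as strong as hits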
Target sequence (P9WFX0 whole entry, looked up): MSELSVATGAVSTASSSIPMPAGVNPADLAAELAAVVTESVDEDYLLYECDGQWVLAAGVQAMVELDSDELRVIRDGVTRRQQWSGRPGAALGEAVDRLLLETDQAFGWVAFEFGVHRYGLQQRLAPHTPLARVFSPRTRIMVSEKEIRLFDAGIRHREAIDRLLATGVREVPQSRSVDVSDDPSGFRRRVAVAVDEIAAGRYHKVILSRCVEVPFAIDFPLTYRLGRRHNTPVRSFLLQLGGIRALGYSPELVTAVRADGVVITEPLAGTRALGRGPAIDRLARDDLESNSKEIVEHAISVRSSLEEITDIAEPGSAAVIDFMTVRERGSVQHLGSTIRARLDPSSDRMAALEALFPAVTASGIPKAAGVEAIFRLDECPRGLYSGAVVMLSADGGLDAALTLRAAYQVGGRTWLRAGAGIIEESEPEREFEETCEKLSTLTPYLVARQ
PV pol inh: poliovirus RNA polymerase inhibition | P03300 | poliovirus polymerase elongation, fluorescence polarization; stronger effect = lower value | % elongation, % (compound at 16.7 µg/mL) | 150,000 tested, 0.66% active | AID 588519; in the data active means % elongation below about 90%; further: some results filed as inactive read as strong as hits
Target sequence (P03300 1749-2209 limits assumed): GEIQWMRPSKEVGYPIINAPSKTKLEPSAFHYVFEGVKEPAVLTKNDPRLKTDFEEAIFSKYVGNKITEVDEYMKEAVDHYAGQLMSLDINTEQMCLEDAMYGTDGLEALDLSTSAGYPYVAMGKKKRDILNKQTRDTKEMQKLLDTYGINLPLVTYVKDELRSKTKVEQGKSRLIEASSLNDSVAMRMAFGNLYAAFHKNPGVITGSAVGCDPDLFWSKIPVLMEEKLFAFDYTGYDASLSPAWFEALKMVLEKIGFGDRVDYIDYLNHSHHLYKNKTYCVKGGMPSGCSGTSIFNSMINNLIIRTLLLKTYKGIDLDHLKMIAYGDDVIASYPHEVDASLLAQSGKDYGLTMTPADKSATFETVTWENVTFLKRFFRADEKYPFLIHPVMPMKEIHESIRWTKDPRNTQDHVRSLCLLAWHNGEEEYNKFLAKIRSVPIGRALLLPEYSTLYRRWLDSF
PV pol inh intensity: further read-out of PV pol inh, marked with its call; % elongation; measured here: total intensity read-out; formula for this scale not given here;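 total fluorescence in place of polarization; lower means less elongation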
* hit, by the source's call; . = no result given.

SMILES | Mtb MenB inh | MbtI inh | PV pol inh | PV pol inh intensity
CS(=O)CCNC(=O)Nc1ccc(Cl)c(Cl)c1 (stereo not given) | 13 | 3 | 101 | 104
NS(=O)(=O)c1ccccc1 | -48 | 6 | 102 | 99
CC(NC(=O)c1ccc2c(c1)N(C)CCS2)c1ccccc1 (stereo not given) | 13 | 34 | 99 | 97
CC(CN)c1ccccc1 (stereo not given) | -20 | -9 | 100 | 108
CCn1c(SC(C)C(=O)NC(C)c2ccc(F)cc2)n[nH]c1=O (stereo not given) | 0 | -2 | 107 | 109
CN(C)C(=S)Nc1ccc(S(=O)(=O)N2CCCCC2)cc1 | 7 | -11 | 106 | 105
O=C(Cn1cc(S(=O)(=O)N2CCCC2)c(S(=O)(=O)N2CCCC2)c1)N1CCc2ccccc21 | 9 | 8 | 101 | 96
CCn1cc(CN(C)C(=S)Nc2ccc(Br)cc2Cl)c(C)n1 | -19 | -10 | 99 | 101
CS(=O)(=O)c1ccc2ccn(O)c2c1 | 27 | 7 | 101 | 104
O=C(C1CC2C=CC1C2)N1CCN(c2ccccc2)CC1 (stereo not given) | -33 | -9 | . | .
O=c1c2c(nc3n1CCC3)sc1c(O)c(Br)ccc12 | 38* | 10 | 100 | 104
Cc1cc(N2CCCC2)nc(-n2nc(C)cc2C)n1 | -36 | 11 | 101 | 111
CCCN(C(=O)CSc1ccccc1C(=O)O)C1CCS(=O)(=O)C1 (stereo not given) | 3 | -11 | 104 | 121
CC1Sc2ccc(C(=O)Oc3ccccc3C#N)cc2NC1=O (stereo not given) | -13 | 18 | 94 | 94
COc1ccc(-c2noc(NCCCN3CCCC3=O)n2)cc1OC | -28 | -10 | 103 | 106
Cc1sc2ncnc(Nc3ccc4c(c3)OCCCO4)c2c1C | -36 | 7 | 97 | 102
Cc1ccccc1-n1nc(-c2cccnc2)cc1C(=O)NN | 0 | -4 | 102 | 104
Cc1ccc(S(=O)(=O)Nc2nnc(CC(C)(C)C)s2)cc1 | -104 | 18 | 101 | 96
COc1cc2c(cc1NC(=O)CN1CCN(S(=O)(=O)c3ccc(F)cc3)CC1)oc1ccccc12 | -10 | -7 | 102 | 103
Cc1ccc(N(Cc2ncc(-c3ccccc3)o2)S(=O)(=O)c2ccc3c(c2)OCCO3)cc1 | -13 | 0 | 103 | 111
CCSc1nc(C(F)(F)F)c(C(=O)c2ccccc2)cc1C#N | . | 2 | 106 | 107
O=C(CSc1nnc2n1CCCCC2)N1N=C(c2ccco2)CC1c1ccco1 (stereo not given) | -29 | 13 | 117 | 125
NC(=O)Cn1nnc2sc3c(c2c1=O)CCCC3 | 6 | 28 | 101 | 105
Cc1cc(-c2csc(NCc3ccccc3)n2)c(C)n1CC1CCCO1 (stereo not given) | -5 | 13 | 97 | 100
Clc1cccc(Cl)c1COc1ccccn1 | -36 | -4 | 102 | 102

The list goes on.
SMILES | Mtb MenB inh | MbtI inh | PV pol inh | PV pol inh intensity
Cc1ccc(NC(=O)c2ccccc2)s1 | -4 | . | 107 | 105
O=C(/C=C/c1ccc(Br)o1)OCC(=O)N1CCN(S(=O)(=O)c2ccc3ccccc3c2)CC1 | -4 | -7 | 107 | 112
CC(=O)OCC(=O)Nc1ccccc1C#N | -7 | . | 106 | 108
Cc1cccc(C(N)=S)c1 | -17 | 62* | 98 | 97
O=C(/C=C/c1ccco1)NNc1c(F)c(F)cc(F)c1F | -9 | 6 | 100 | 100
Cc1[nH]c2ccccc2c1C(=O)COc1ccccc1 | . | 1 | 100 | 103
COc1ccc(CCNC(=O)CCCn2c(=O)[nH]c3ccccc3c2=O)cc1OC | -31 | -9 | 103 | 102
CC1CC(C)CN(c2ccc(NC(=O)c3ccc(Cl)cc3)cc2C(=O)O)C1 (stereo not given) | 12 | 5 | 103 | 98
Cc1cc(F)ccc1S(=O)(=O)Nc1ccc(C(=O)N2CCCCCC2)cc1 | . | -2 | 103 | 99
c1csc(-c2nnc(COc3ccc4c(c3)OCO4)o2)c1 | 3 | 2 | 108 | 112
CCCCNC(=O)Nc1ccccc1Oc1ccccc1 | -4 | 14 | 100 | 101
CCOC(=O)N1CCC(NC(=O)CCc2c(C)nc3c(-c4ccc(F)cc4)c(C)nn3c2C)CC1 | -3 | -5 | 101 | 105
CCOC(=O)c1c(/N=C/c2nc(-c3ccco3)oc2O)sc2c1CCC2 | 4 | -18 | 99 | 99
CCOC(=O)C1C(C)C2C(=O)C=CCC2N1C (stereo not given) | -29 | -106 | 103 | 104
O=C1CN(C(=O)/C=C/c2ccccc2)C(c2ccccc2)c2cc(Br)ccc2N1 (stereo not given) | -28 | -1 | 103 | 106
O=C(CCn1c(=O)c2ccccc2n(Cc2ccccc2)c1=O)NCc1ccc2c(c1)OCO2 | -1 | -2 | 103 | 98
NC(=O)N/N=C/c1cccs1 | 9 | 0 | 101 | 103
Nc1nnc(SCC(O)Cn2c3c(c4ccccc42)CCCC3)s1 (stereo not given) | 25* | . | 103 | 100
COc1cc2nc(CN(C)C3CCCCC3)[nH]c(=O)c2cc1OC | 14 | -6 | 107 | 115
CCN(CC(=O)NC)S(=O)(=O)c1ccccc1 | -16 | -8 | 101 | 102
CN1C(=O)C(=Cc2cccn2-c2ccc(N(C)C)cc2)C(=O)N(C)C1=S | 4 | 21 | 103 | 99
CCc1ccc(CNCc2cccs2)cc1 | -51 | -13 | 105 | 104
CC1Oc2ccccc2N(CCC(=O)O)C1=O (stereo not given) | 1 | 14 | 101 | 107
OC1CCC(NCc2ccc(-c3nc4ccccc4s3)o2)CC1 (stereo not given) | 0 | 100 | 107 | 119
COc1cc(C#N)ccc1Oc1nc(CN2CCOCC2)nc2scc(-c3cccs3)c12 | -21 | 18 | 97 | 96

18 compounds already listed, arranged by SMILES length, lowest first.
SMILES | Mtb MenB inh | MbtI inh | PV pol inh | PV pol inh intensity
Cc1cccc(C(N)=S)c1 | -17 | 62* | 98 | 97
NS(=O)(=O)c1ccccc1 | -48 | 6 | 102 | 99
Cc1ccc(NC(=O)c2ccccc2)s1 | -4 | . | 107 | 105
CC(=O)OCC(=O)Nc1ccccc1C#N | -7 | . | 106 | 108
CS(=O)(=O)c1ccc2ccn(O)c2c1 | 27 | 7 | 101 | 104
CC1Oc2ccccc2N(CCC(=O)O)C1=O (stereo not given) | 1 | 14 | 101 | 107
NC(=O)Cn1nnc2sc3c(c2c1=O)CCCC3 | 6 | 28 | 101 | 105
CS(=O)CCNC(=O)Nc1ccc(Cl)c(Cl)c1 (stereo not given) | 13 | 3 | 101 | 104
O=C(C1CC2C=CC1C2)N1CCN(c2ccccc2)CC1 (stereo not given) | -33 | -9 | . | .
O=C(/C=C/c1ccco1)NNc1c(F)c(F)cc(F)c1F | -9 | 6 | 100 | 100
CCn1cc(CN(C)C(=S)Nc2ccc(Br)cc2Cl)c(C)n1 | -19 | -10 | 99 | 101
COc1cc2nc(CN(C)C3CCCCC3)[nH]c(=O)c2cc1OC | 14 | -6 | 107 | 115
CCn1c(SC(C)C(=O)NC(C)c2ccc(F)cc2)n[nH]c1=O (stereo not given) | 0 | -2 | 107 | 109
CCOC(=O)c1c(/N=C/c2nc(-c3ccco3)oc2O)sc2c1CCC2 | 4 | -18 | 99 | 99
COc1ccc(CCNC(=O)CCCn2c(=O)[nH]c3ccccc3c2=O)cc1OC | -31 | -9 | 103 | 102
O=C1CN(C(=O)/C=C/c2ccccc2)C(c2ccccc2)c2cc(Br)ccc2N1 (stereo not given) | -28 | -1 | 103 | 106
O=C(CCn1c(=O)c2ccccc2n(Cc2ccccc2)c1=O)NCc1ccc2c(c1)OCO2 | -1 | -2 | 103 | 98
CCOC(=O)N1CCC(NC(=O)CCc2c(C)nc3c(-c4ccc(F)cc4)c(C)nn3c2C)CC1 | -3 | -5 | 101 | 105

(next part)
SMILES | Mtb MenB inh | MbtI inh | PV pol inh | PV pol inh intensity
Cc1ccccc1Cn1cc(S(=O)(=O)CC(=O)Nc2ccc3c(c2)OCCO3)c2ccccc21 | -25 | 0 | 102 | 101
Cc1cccc(NC(=O)Cn2cc(CO)c3ccccc32)c1 | -4 | 6 | 103 | 103
CCO/C=C1\C(=O)N(c2ccc(C)cc2C)C(=O)c2cc(OC)ccc21 | . | -8 | 99 | 101
CCOC(=O)c1cnn(C)c1NS(=O)(=O)c1ccc(Cl)cc1 | 0 | -11 | 104 | 109
Cc1nc2sccn2c(=O)c1S(=O)(=O)NCc1cccnc1 | -4 | 10 | 100 | 104
Clc1ncnc2sccc12 | 7 | 4 | 103 | 101
CC(=O)[C@H]1CCC2C3CCC4=CC(=O)CC[C@]4(C)C3CC[C@@]21C (stereo not given in full) | -4 | -25 | 102 | 100
CC(OC(=O)Cn1c(=O)oc2ccccc21)C(=O)N(C)Cc1cccc(F)c1 (stereo not given) | 4 | 5 | 103 | 104
C[N+]1(C)C2CC[C@H]1CC(OC(=O)C(O)c1ccccc1)C2 (stereo not given in full) | 4 | -15 | 101 | 102
c1nnnn1CC1CCOCO1 (stereo not given) | -17 | -4 | 100 | 103
O=C(Nc1cc(C(F)(F)F)cc(C(F)(F)F)c1)C(=S)N1CCCCC1 | 1 | . | 76* | 69*
COCCN(Cc1ccccc1)S(=O)(=O)c1cccc(C#N)c1 | -29 | -4 | 95 | 72
O=C(NCc1cccs1)c1ccc2ccccc2n1 | 3 | -6 | 104 | 107
O=C(Nc1cccc(NC(=S)NC(=O)c2cccc3c(Br)cccc23)c1)c1ccco1 | -31 | 6 | 100 | 101
COc1ccc(Cl)cc1NC(=O)NCC1CCN(C(=O)OC(C)(C)C)CC1 | 2 | -1 | 102 | 95
Cc1sc2ncnc(SCC(=O)c3ccccc3)c2c1C | -6 | . | 103 | 106
N#Cc1c(N2CCCCC2)nc(N)c2c(N)nc(SCC(=O)O)cc12 | -12 | -90 | 94 | 101
Nn1c(CCCc2nc3ccccc3c(=O)n2N)nc2ccccc2c1=O | 5 | 8 | 106 | 99
O=C(Nc1cccnc1)C1CC(c2ccc(Cl)cc2)=NO1 (stereo not given) | -20 | -4 | 101 | 103
CNC(=O)COc1ccc(C(=O)c2ccc(F)cc2)cc1 | -5 | 9 | 99 | 101
CCOc1ccc(C(=O)NN)cc1 | -1 | -12 | 102 | 105
CS(=O)(=O)Cc1ccccc1 | 28* | -6 | 98 | 104
CC1(C)CCCC2=C1CC1C(=O)N(CCC[N+](C)(C)C)C(=O)C1C2 (stereo not given) | -9 | -3 | 101 | 107
CC(C)(C)c1cc(C(=O)Oc2ccc(Cl)cc2)n(Cc2ccccc2)n1 | -13 | -5 | 103 | 104
COC(=O)CNC(=O)Cc1c(F)cccc1Cl | 11 | -11 | 100 | 104

(list continues)
SMILES | Mtb MenB inh | MbtI inh | PV pol inh | PV pol inh intensity
O=c1[nH]c(=S)[nH]c(C(F)(F)F)c1Cc1ccc(Cl)c(Cl)c1 | 1 | -9 | 103 | 106
Cc1cccc(NCc2ccccc2O)c1 | 1 | 11 | 103 | 105
COc1cc2c(cc1OC)CN(Cc1nc3ccsc3c(=O)[nH]1)CC2 | -27 | -30 | 114 | 133
CC(=O)Nc1c(C(=O)O)oc2ccc(Cl)cc12 | -31 | -98 | 101 | 100
O=S1(=O)CCC(NC(=S)S)C1 (stereo not given) | . | 96* | 101 | 99
O=C(/C=C/c1ccco1)ON1C(=O)c2ccccc2C1=O | -24 | -142 | 94 | 94
CC1(CSc2ccccc2C(=O)NCC2COc3ccccc3O2)NC(=O)NC1=O (stereo not given) | -3 | 9 | 93 | 93
CCN1CCN(C(=O)N[C@@H](C(=O)N[C@@H]2C(=O)N3[C@@H]2SC(C)(C)[C@@H]3C(=O)O)c2ccccc2)C(=O)C1=O | -4 | -7 | 99 | 103
CCOC(=O)c1c(NC(=O)c2ccco2)sc2c1CCCC2=O | 14 | 15 | 101 | 102
Clc1cccc(N2CCN(c3c4c(nc5ccc(Cl)cc35)CCC4)CC2)c1 | -20 | 6 | 102 | 110
O=C(Nc1ccc(Cl)cc1)Nc1nc(-c2ccccc2)cs1 | -26 | 22 | 97 | 92
O=C(O)CSCc1ccc(Br)cc1 | . | -2 | 102 | 105
COc1cc(C(=O)NC(C)C(=O)NN)cc(OC)c1OC (stereo not given) | -21 | -5 | 99 | 103
CC(C)(C)n1c(O)c(/C=C2\C=c3ccccc3=N2)c(=O)[nH]c1=O | -287 | . | 107 | 108
O=C1c2nc3cc(-c4ccccc4)[nH]n3c(=O)c2CN1C1CCCCC1 | -8 | -60 | 108 | 113
O=C(COC(=O)c1nn(CCO)c(=O)c2ccccc12)Nc1ccc(Cl)c(Cl)c1 | -39 | 8 | 100 | 81
S=C(NCCc1ccccc1)N1CCc2ccccc21 | -47 | -2 | 101 | 97
CCc1ccc(CN2CCN(Cc3ccc(CC)cc3)CC2)cc1 | 3 | -11 | 100 | 101
Cc1ccn2cc(C(=O)NCc3ccccc3)nc2c1 | -63 | 90 | 105 | 100
COC(CNC(=O)c1c(O)nc2ccccn2c1=O)OC | 5 | 118 | 99 | 106
CCc1cccc(CC)c1NC(=O)COC(=O)c1cccs1 | . | -8 | 101 | 104
Cc1ccc(C(C)C)c(OCCn2ccnc2)c1 | 7 | 2 | 103 | 101
COC(=O)c1ccc(CN2CCC(c3nc4ccccc4s3)CC2)o1 | -9 | -7 | 102 | 107
COc1ccc(CCN(C)C/C=C/c2ccc(N(C)C)cc2)cc1OC | -14 | -260 | 100 | 105
CN=c1scc(-c2ccc(Br)s2)n1/N=C/c1ccc(OCC(=O)N2CCOCC2)c(OC)c1 | -41 | 4 | 107 | 112
CCOc1cc(CN2CCCCC2)ccc1OC | -1 | -25 | 100 | 104
CCOC(=O)Cn1c(=O)oc2cc(S(=O)(=O)NCC3CCCO3)ccc21 (stereo not given) | -6 | -6 | 104 | 109
